GALR2 ag = GALR2 (human) receptor agonism | GALR2-expressing cells, agonist activation read-out | O43603 | hit rate 0.48% among 140,000 | activation, %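 (tested at 5 µM)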;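 active means above mean plus 3 SD of all compounds, about 5% in these data, not always enough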;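 further: 0% = vehicle buffer wells and 100% = reference agonist at full effect; tested in CHO reporter cells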
Target sequence (O43603 whole entry, looked up): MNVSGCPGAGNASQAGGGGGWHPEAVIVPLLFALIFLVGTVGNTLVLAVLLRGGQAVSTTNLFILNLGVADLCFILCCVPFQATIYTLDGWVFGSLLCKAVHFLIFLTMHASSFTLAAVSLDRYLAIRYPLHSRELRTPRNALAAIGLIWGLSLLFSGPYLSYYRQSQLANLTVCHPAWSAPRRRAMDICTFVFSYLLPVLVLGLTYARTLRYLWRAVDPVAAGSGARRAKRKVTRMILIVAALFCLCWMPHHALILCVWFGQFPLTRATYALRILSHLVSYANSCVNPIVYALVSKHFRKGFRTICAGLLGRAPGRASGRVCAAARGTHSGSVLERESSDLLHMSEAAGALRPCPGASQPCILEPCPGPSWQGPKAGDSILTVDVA
HSV augment = HSV replication enhancement; maximum fold increase; hit rate 0.005% among 220,000; HSV replication augmentation in cells, fold increase; AID 1956;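 active means peak rise of 1.5-fold or more in the series; inconclusive means self-fluorescent or not available for retest; tested in PC3 cells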;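 further: first round at 10 µM; read as green reporter fluorescence; hits show the peak of a series up to 25 µM; 1 = signal of infected wells without compound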
PKD1 inh = blocks activity of human protein kinase D1; PKD1 kinase fluorescence polarization assay; inhibition, %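 (about 10 µM by stock and volumes)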; hit rate 0.056% among 200,000; AID 797;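 active means inhibition of 50% or more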;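 further: controls were vehicle for no effect and a reference inhibitor for full effect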
INS promoter inh = TRM-6 insulin promoter activity inhibition; hit rate 0.9% among 130,000; TRM-6 cells (human fetal islet line), insulin promoter-eGFP reporter, imaging; reporter expression induced with tamoxifen; inhibition, % at 2 µM;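 active means inhibition above the mean plus 3 SD, with well images judged a real hit on visual review, cut at about 60% in these data, passing the limit was not always enough; inconclusive means inhibition over the cutoff but images rejected on review; inactive means inhibition not above the cutoff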
RGS16-Gao HTS = modulates binding between human RGS16 and Galphao. O15492+P09471. bead-based flow cytometry RGS16-Galphao binding, fluorescence; actives lie on both sides. hit rate 0.38% among 220,000. binding response (% of control), % at 10 µM;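 active means below 25% or above 175%, edge rows of some plates excepted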;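 further: Galphao activated by GDP with aluminum fluoride before binding; 100% = wells without compound and 0% = beads without RGS; some results beyond the cut were filed as inactive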
Target sequence (O15492 whole entry, looked up): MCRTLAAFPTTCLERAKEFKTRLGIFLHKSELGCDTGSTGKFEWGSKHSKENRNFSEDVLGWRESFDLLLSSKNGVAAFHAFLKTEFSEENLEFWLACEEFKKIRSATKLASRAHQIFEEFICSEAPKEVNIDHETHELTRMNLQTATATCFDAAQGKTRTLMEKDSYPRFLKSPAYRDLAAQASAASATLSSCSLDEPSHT
Target sequence (P09471 whole entry, looked up): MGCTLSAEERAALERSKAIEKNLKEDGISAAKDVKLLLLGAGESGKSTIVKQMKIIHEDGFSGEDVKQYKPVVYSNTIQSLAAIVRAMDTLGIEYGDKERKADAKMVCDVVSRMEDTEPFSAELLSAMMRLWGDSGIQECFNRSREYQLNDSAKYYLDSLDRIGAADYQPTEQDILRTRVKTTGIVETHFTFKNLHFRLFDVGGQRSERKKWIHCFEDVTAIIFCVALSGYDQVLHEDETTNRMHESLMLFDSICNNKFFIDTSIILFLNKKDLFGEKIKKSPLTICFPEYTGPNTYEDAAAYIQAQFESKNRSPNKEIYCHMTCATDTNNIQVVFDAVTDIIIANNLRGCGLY
INS promoter inh cell count = further read-out of INS promoter inh, marked with its call; normalized cell count, %; measured here: cell count, toxicity; reference of the scale not given here;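 cells exposed to compound for 48 h; stained nuclei by imaging scaled within each plate; lower means fewer cells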
HSV augment primary fold = second read-out of HSV augment, no call of its own (marks repeat the call); fold increase; compound at 10 µM; measured here: primary screen fold increase 10 uM; tested in PC3 cells;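 GFP signal in the first replicate; 1 = infected wells without compound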
An asterisk follows results filed as active; i = inactive; ? = inconclusive; / = no result given. The list is partial; the hit share may differ from the screen's.

cpd	Compound	GALR2 ag	HSV augment	HSV augment primary fold	PKD1 inh	INS promoter inh	INS promoter inh cell count	RGS16-Gao HTS
1	CC(C)OC(=O)C1C2c3ccccc3C(c3ccccc32)C1C(=O)O (stereo not drawn)	/	i	0.8	4	8	120	104
2	O=C1NC(=O)C2(Cc3ccccc3N3CCCC32)C(=O)N1c1ccc(Cl)cc1 (stereo not drawn)	-0.3	i	1	-10	-9	137	98
3	CCCCn1c(=O)c(C(=O)NCc2ccco2)c(O)c2ccccc21	/	i	0.91	-1	9	138	106
4	CCCCCCCSc1cc(OC)c(CCNC)cc1OC	-3.0	i	0.54	-4	/	/	99
5	O=c1[nH]c(O)c(N=Nc2ccc3c(c2)OCCO3)c(=O)[nH]1	/	i	0.93	0	/	/	104
6	c1cncc(C2CC(c3cccs3)n3ncnc3N2)c1 (stereo not drawn)	-2.0	i	0.94	5	/	/	64
7	CN(C)C1(c2nnnn2-c2ccc(Cl)cc2)CCCCC1	-0.7	i	0.99	-10	/	/	102
8	Fc1ccc2c(c1)nnn2C1CCN(Cc2nnnn2C2CCCCC2)CC1	-2.2	i	0.98	-8	-54	85	85
9	Cc1c(NP(=S)(C(C)(C)C)C(C)(C)C)c(=O)n(-c2ccccc2)n1C	/	i	1.1	1	/	/	97
10	Cc1ccc(Cn2nnnc2CN2CCC(n3nnc4cc(C(F)(F)F)ccc43)CC2)cc1	-1.4	i	1.1	-2	-23	106	109
11	O=S(=O)(c1ccccc1)N1CN2CCN(C2)C1	-0.1	i	0.99	5	86*	100*	101
12	CCCCn1c(O)c(C(CC)=NCc2ccc(F)cc2)c(=O)[nH]c1=O	0.2	i	0.83	-4	83*	24*	118

Other results
cpd	Compound	GALR2 ag	HSV augment	HSV augment primary fold	PKD1 inh	INS promoter inh	INS promoter inh cell count	RGS16-Gao HTS
13	CN1CCN(Cc2ccc(OC(F)(F)F)cc2)CC1	-1.4	i	1	3	14	68	86
14	CCC(=NCC1CCCO1)c1c(O)n(-c2ccc(Cl)cc2)c(=O)[nH]c1=O (stereo not drawn)	0.8	i	0.95	-4	-71	99	95
15	O=C(C1CCCN(c2nnc(-n3cccc3)s2)C1)N1CCC2(CC1)OCCO2 (stereo not drawn)	-0.1	i	0.97	-3	-144	108	98
16	CC(C)c1ccc(-n2c(O)c(C=NC(CCS(C)=O)C(=O)O)c(=O)[nH]c2=S)cc1 (stereo not drawn)	/	i	1	/	/	/	119
17	O=C(CN1CCCCC1)Nc1ccc(Br)cc1C(=O)c1ccccc1Cl	-1.0	/	/	-5	17	122	101
18	CCOC(=O)c1cn2nc(OP(=S)(OCC)OCC)cc2nc1C	-0.3	i	0.9	-5	/	/	105
19	CC(=O)c1cccc(NC2=NCC(C)S2)c1 (stereo not drawn)	-1.8	i	0.77	-4	/	/	101
20	Cc1ccc(-n2c(-c3ccc([N+](=O)[O-])cc3)nc3ccccc3c2=O)cc1	-0.8	i	0.83	-5	/	/	106
21	CC1C2Cn3c(nc4ccccc43)C1N(C)O2 (stereo not drawn)	/	i	0.86	/	/	/	103
22	OC(c1ccccc1)(c1ccccc1)C1CCCN1 (stereo not drawn)	-2.3	i	0.87	2	-6	114	117
23	COCCNC(=O)c1c(NC(=O)c2ccc(Br)o2)n(Cc2ccccc2)c2nc3ccccc3nc12	2.7	?	/	-13	-28	65	72
24	COc1ccc(CCn2c(O)c(C=Nc3ccc(NC(C)=O)cc3)c(=O)[nH]c2=O)cc1OC	/	i	1.2	/	/	/	100

Later entries
cpd	Compound	GALR2 ag	HSV augment	HSV augment primary fold	PKD1 inh	INS promoter inh	INS promoter inh cell count	RGS16-Gao HTS
25	CCN1CCN(c2ccc(N)cc2)CC1	/	i	0.8	3	29	152	99
26	Clc1cc(Cl)cc(NC2=NCCS2)c1	/	i	1	/	/	/	-17*
27	O=C1/C(=C/c2cc3c(cc2Cl)OCO3)N2CCC1CC2	0.2	i	0.97	1	-25	77	103
28	O=C1NC(=O)N(c2ccc(F)cc2)C(=O)/C1=C/c1ccsc1	/	i	1.1	-8	/	/	87
29	C=CCn1c(O)c(C(C)=Nc2ccc3c(c2)CCC3)c(=O)[nH]c1=O	/	i	1	/	/	/	99
30	CN1CCN(c2nc(N)c(Br)c(Cl)n2)CC1	/	i	0.96	/	/	/	107
31	C1CC2NCCC3NCCC(N1)N32 (stereo not drawn)	/	i	0.99	/	/	/	95
32	CNC(C(=O)c1ccccc1)C(OC)c1ccc(C)cc1 (stereo not drawn)	-0.8	i	1.1	4	-17	143	104
33	O=C1NC(=O)N(Cc2ccccc2)C(=O)/C1=C/c1cnc(-c2ccccc2)nc1	/	/	/	4	40	107	42
34	CCCCC(=O)C1C(=O)NC(=O)NC1=O	-0.7	i	1.1	4	-3	64	99
35	Cc1ccc(-c2nc3ccccc3c(=O)n2-c2cc(C)ccn2)cc1	-1.4	i	1.2	-1	-47	80	101
36	O=c1[nH]c(=O)n(CCC2=CCCCC2)c(O)c1/C=N/Nc1ccccc1	-0.4	i	1.1	2	/	/	94

11 structures out of the list, ordered by molecular weight, falling.
cpd	Compound	GALR2 ag	HSV augment	HSV augment primary fold	PKD1 inh	INS promoter inh	INS promoter inh cell count	RGS16-Gao HTS
23	COCCNC(=O)c1c(NC(=O)c2ccc(Br)o2)n(Cc2ccccc2)c2nc3ccccc3nc12	2.7	?	/	-13	-28	65	72
24	COc1ccc(CCn2c(O)c(C=Nc3ccc(NC(C)=O)cc3)c(=O)[nH]c2=O)cc1OC	/	i	1.2	/	/	/	100
36	O=c1[nH]c(=O)n(CCC2=CCCCC2)c(O)c1/C=N/Nc1ccccc1	-0.4	i	1.1	2	/	/	94
35	Cc1ccc(-c2nc3ccccc3c(=O)n2-c2cc(C)ccn2)cc1	-1.4	i	1.2	-1	-47	80	101
29	C=CCn1c(O)c(C(C)=Nc2ccc3c(c2)CCC3)c(=O)[nH]c1=O	/	i	1	/	/	/	99
28	O=C1NC(=O)N(c2ccc(F)cc2)C(=O)/C1=C/c1ccsc1	/	i	1.1	-8	/	/	87
30	CN1CCN(c2nc(N)c(Br)c(Cl)n2)CC1	/	i	0.96	/	/	/	107
27	O=C1/C(=C/c2cc3c(cc2Cl)OCO3)N2CCC1CC2	0.2	i	0.97	1	-25	77	103
32	CNC(C(=O)c1ccccc1)C(OC)c1ccc(C)cc1 (stereo not drawn)	-0.8	i	1.1	4	-17	143	104
26	Clc1cc(Cl)cc(NC2=NCCS2)c1	/	i	1	/	/	/	-17*
31	C1CC2NCCC3NCCC(N1)N32 (stereo not drawn)	/	i	0.99	/	/	/	95

Continuation.
cpd	Compound	GALR2 ag	HSV augment	HSV augment primary fold	PKD1 inh	INS promoter inh	INS promoter inh cell count	RGS16-Gao HTS
37	CCOc1cc(-c2nc3c(C)cccn3c2NCC2CCCO2)ccc1O (stereo not drawn)	0.2	i	0.74	-13	/	/	101
38	Cn1c(N2CCNCC2)nc2ccccc21	-1.8	i	0.8	1	-477	57	101
39	CC(C)CCn1c(=O)c(C(=O)NCc2ccco2)c(O)c2ccccc21	/	i	1.1	/	/	/	111
40	Cc1cccc(CN2CCN(c3ccc(Cl)cc3)CC2)c1	/	i	1	3	/	/	98
41	Cc1ccc(CN(Cc2ccccc2)C(=S)NCC(=O)N2CCC3(CC2)OCCO3)o1	/	i	1	-1	-26	30	116
42	Cc1sc(-n2c(C)cc(C=C3C(=O)NC(=O)NC3=O)c2C)c(C#N)c1C	-0.6	i	1.2	-5	7	72	97
43	CC(=O)c1c(C)n(Cc2ccccc2)c2ccc(O)cc12	/	/	/	/	/	/	103
44	CCN(CC)c1ccc(N=Cc2c(O)n(-c3ccc(Cl)cc3)c(=O)[nH]c2=O)cc1	-1.9	?	/	1	/	/	99
45	Fc1ccc(CCNCc2ccc(Cl)c(Cl)c2)cc1	-3.7	i	0.64	-8	/	/	104
46	Cc1ccc(-n2c(O)c(/C=N/N3CCCCCC3)c(=O)[nH]c2=O)cc1C	/	i	1	/	/	/	92
47	c1ccc2sc(C3CCCNC3)nc2c1 (stereo not drawn)	-0.8	i	1	-16	/	/	99
48	c1ccc2c(CCNC3CCCCC3)c[nH]c2c1	/	i	0.92	-1	46	99	95

Additional structures:
cpd	Compound	GALR2 ag	HSV augment	HSV augment primary fold	PKD1 inh	INS promoter inh	INS promoter inh cell count	RGS16-Gao HTS
49	CCCC/C(=N/O)c1c(C)[nH]c2ccccc12	/	i	0.88	-11	/	/	107
50	CN1CN=C(N[N+](=O)[O-])N(Cc2ccco2)C1	-0.6	i	0.94	-4	37	134	110
51	N=C(N)c1c(O)n(C2CCCCC2)c(=O)n(C2CCCCC2)c1=O	0.6	i	0.92	-2	50	125	97
52	CNc1cc(N2CCNCC2)ccc1[N+](=O)[O-]	/	i	0.87	4	/	/	99
53	Cc1c(C=O)c2ccccc2n1Cc1ccc(F)cc1	/	i	0.85	-4	/	/	87
54	c1ccc(CNC2=NCCS2)cc1	-3.2	i	0.98	-5	20	111	106
55	Cc1ccc(NP(=O)(c2ccccc2)c2nc3ccccc3s2)cc1 (stereo not drawn)	/	i	0.86	0	/	/	95
56	Cn1cccc1/C=C1\C(=O)NC(=O)N(CCC2=CCCCC2)C1=O	-0.5	i	1.2	-9	/	/	102
57	CCOC(=O)C(O)(c1ccc(N(CC)C(=O)COc2ccccc2)cc1)C(F)(F)F (stereo not drawn)	-0.3	i	0.98	-6	40	59	159
58	CCN(CC)P(=O)(Oc1cccc(C)c1)N(CC)CC	-0.5	i	0.88	0	-19	39	94
59	CCn1c(O)c(/C=N/NC(=O)c2ccccc2)c(=O)[nH]c1=S	/	i	0.93	/	/	/	101
60	O=C1OCCN1P(=O)(c1ccccc1)c1ccccc1	-0.8	i	0.99	-15	/	/	107

New compounds follow:
cpd	Compound	GALR2 ag	HSV augment	HSV augment primary fold	PKD1 inh	INS promoter inh	INS promoter inh cell count	RGS16-Gao HTS
61	O=C(c1cccn2c(=O)c3cc(Br)ccc3nc12)N1CCC2(CC1)OCCO2	-1.5	i	0.94	-4	13	100	95
62	O=P(O)(O)/C=C(\Cl)c1ccccc1	-0.7	i	1	1	/	/	100
63	Cc1cccc(OCC(=O)N2CCN(Cc3ccncc3)CC2)c1	-2.9	i	0.97	-3	30	104	93
64	CC(=O)N1CCC(N2CCCC(C(=O)c3cccc(Cl)c3)C2)CC1 (stereo not drawn)	/	i	1.1	-3	17	51	111
65	CCOc1ccccc1-n1c(O)c(C=NCCCN(CC)CC)c(=O)[nH]c1=O	-0.4	i	1.1	4	/	/	100
66	O=C1C2C3CCC(O3)C2C(=O)N1CCO (stereo not drawn)	/	i	0.95	/	/	/	100
67	Cc1ccc2c(c1)CC1(CN2C)C(=O)NC(=O)N(CCC2=CCCCC2)C1=O (stereo not drawn)	-1.2	i	1.1	-13	54	100	101
68	CCn1c(O)c(N=Nc2ccc(S(=O)(=O)N3CCOCC3)cc2)c(=O)n(CC)c1=S	/	i	0.62	/	/	/	99
69	CNCC1(c2ccccc2)CCCC1	-2.2	i	1	-3	-3	50	100
70	CCNC(=O)C1OC(n2cnc3c(N)ncnc32)C(O)C1O (stereo not drawn)	-1.3	i	0.94	15	31	106	/
71	O=C(COC(=O)Cc1ccccc1)Nc1ncc(Cl)cc1Cl	-1.4	i	0.91	-2	27	135	104
72	[N-]=[N+]=NCc1cn2cccnc2n1	/	i	1.1	3	-20	98	110

(cont.)
cpd	Compound	GALR2 ag	HSV augment	HSV augment primary fold	PKD1 inh	INS promoter inh	INS promoter inh cell count	RGS16-Gao HTS
73	O=P(Nc1ccccc1)(Nc1ccccc1)Oc1ccccc1	-2.9	i	0.91	14	-33	86	10*
74	Cc1cc(N2C(=O)C3CCCN3C2c2sccc2C)no1 (stereo not drawn)	-3.0	i	0.99	-15	/	/	61
75	Fc1ccc(Cn2nnnc2CN2CCC(n3nnc4cc(C(F)(F)F)ccc43)CC2)cc1	/	i	0.88	/	/	/	100
76	COc1ccc(-n2c(O)c(C(C)=NCCc3c[nH]c4ccccc34)c(=O)[nH]c2=O)cc1	/	i	1.1	/	/	/	102

Assay outcomes (PubChem)
